Source: PubChem (several laboratories)
Vif TR-FRET = inhibitors of Vif binding to APOBEC3G peptide, primary screen, biochemical, TR-FRET, GST-Vif 1-94, biotin-A3G peptide, dose response retest (AID 1117319); actives 0.57% (n = 260,000); inhibition, %, or IC50 in µM where a hit was titrated; TR-FRET GST-Vif / biotin-A3G peptide binding; higher % means a stronger effect; test concentration not given here; strong numbers were not always called active;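 active means above the screen mean plus three standard deviations and confirmed in dose response; inconclusive means results disagree or hit not tested in dose response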;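 further: Vif residues 1-94 fused to GST binding biotinylated APOBEC3G peptide 110-148; 0% = full assay without inhibitor and 100% = GST in place of GST-Vif; retest series ran down from 100 µM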
Calb FLC = C. albicans growth modulation with fluconazole; C. albicans CaCi-2 (fluconazole-resistant clinical isolate) + fluconazole, Alamar Blue growth, 48 h; actives 0.57% (n = 300,000); growth inhibition, % (concentration not given with the values);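 active means most replicates above 75%; inconclusive means exactly half above 75%; inactive means most below 75%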;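 further: all wells also contain fluconazole at 8 µg/ml as a sub-toxic cotreatment; 0% = median of DMSO wells and 100% = median of geldanamycin control wells; wells of about 8 µL received 7.5 nL stock; the first replicate is given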
MLL AF4-AF9 inh = blocks AF4 peptide binding to human AF9; P42568; AlphaScreen, biotin-AF4 peptide binding to FLAG-AF9; inhibition, % at 10 µM; actives 0.47% (n = 350,000); AID 651704;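 active means every replicate reaching a set inhibition limit, whatever the replicate mean, cut at about 25% in these data; inconclusive means mean inhibition reaches that limit but some replicates miss it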;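 further: 0% = plate neutral control median and 100% = total signal loss; the record names both 10 and 1 µM as test concentration; the first replicate is given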
Target sequence (P42568 whole entry, looked up): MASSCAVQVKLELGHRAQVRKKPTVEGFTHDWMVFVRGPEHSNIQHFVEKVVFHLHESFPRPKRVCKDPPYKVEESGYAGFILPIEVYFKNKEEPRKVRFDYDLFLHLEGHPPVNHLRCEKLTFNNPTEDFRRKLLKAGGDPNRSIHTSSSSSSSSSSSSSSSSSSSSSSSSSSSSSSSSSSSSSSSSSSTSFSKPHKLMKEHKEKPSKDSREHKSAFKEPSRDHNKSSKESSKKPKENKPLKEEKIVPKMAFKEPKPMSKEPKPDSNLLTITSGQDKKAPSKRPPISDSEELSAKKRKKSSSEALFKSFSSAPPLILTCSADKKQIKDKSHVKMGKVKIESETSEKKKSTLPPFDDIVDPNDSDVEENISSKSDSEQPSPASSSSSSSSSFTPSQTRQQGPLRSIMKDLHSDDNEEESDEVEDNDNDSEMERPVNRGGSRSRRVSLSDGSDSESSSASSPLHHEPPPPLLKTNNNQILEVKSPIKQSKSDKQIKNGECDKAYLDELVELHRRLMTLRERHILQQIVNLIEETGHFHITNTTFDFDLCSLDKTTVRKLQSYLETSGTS
Bfl-1 A1 inh = inhibitors of the anti-apoptotic protein A1, read as caspase activation | AID 2462 | MEF A1-2A-BIM cells, Caspase-Glo 3/7 luminescence, 3 h; percent of clofoctol response, vehicle zero | caspase activation, % (no concentration beside the values) | actives 0.066% (n = 330,000);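 active means over half of replicate activation scores above 10%, or exactly half above 10 with the replicate mean above 10; inconclusive means replicate mean below 10 yet half the replicates above 10; inactive means over half of replicates below 10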;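 further: wells of about 30 µL received 50 nL stock; many hits fall short of the cut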
T cruzi repl = T. cruzi replication inhibition; T. cruzi beta-gal in NIH3T3, luminescence, 90 h; inhibition, % (concentration not given with the values); actives 1.4% (n = 300,000); AID 1885;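 active means mean inhibition across valid replicates above about 55%, limit read from the data; inconclusive means mean below that limit but half or more replicates reach it; inactive means mean below it, under half of replicates reach it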;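 further: signal also drops with host cell toxicity which is not excluded here; 0% = plate median of DMSO wells and 100% = zero luminescence signal; higher percent means less beta-gal luminescence so fewer parasites; stock transfer was 50 nL into about 50 µL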
RanGTP-Impb inh = disruptors of Ran-importin-beta complex formation – biochemical, FRET, CFP-Ran, YFP-importin-beta, homogeneous, primary screen; cell-free CFP-Ran/YFP-importin-beta FRET ratio; inhibition, % (concentration not given with the values); actives 1.1% (n = 300,000);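 active means most replicates above 15%; inconclusive means exactly half above 15%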;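 further: 0% = DMSO wells and 100% = Ran loaded with GDP instead of GTP; wells of about 40 µL received 100 nL stock; the first replicate is given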
Beta apoptosis = blocks beta cell apoptosis; actives 0.8% (n = 300,000); AID 435005; protection from apoptosis, % (no concentration beside the values); INS-1E cytokine-induced death, ATP luminescence, 48 h; percent of positive-control rescue, neutral wells zero;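 active means all replicates at 75% or more, or half of them and the mean; inconclusive means half reach 75% but not the mean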;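 further: 0% = cytokine-treated negative control wells and 100% = positive control rescue; higher means more ATP so stronger rescue from cytokine killing; wells of about 40 µL received 100 nL stock; the first replicate is given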
rRNA inh HTS = inhibitors of bacterial rRNA selective over humanized ribosomes; E. coli WT GFP vs humanized-ribosome RFP mutants, fluorescence, 24 h; stronger effect = lower value; DMSO median 0, no signal -100; GFP signal change (wild-type ribosome), % (no concentration beside the values); actives 1.6% (n = 350,000);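 active means significant combined selectivity score with lowered wild-type GFP, culture density cut under 30%, mutant RFP and density less affected; inactive means any of these conditions unmet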; further: one replicate is shown; some compounds called inactive have numbers as strong as hits
rRNA inh HTS OD600 = second read-out of rRNA inh HTS, no call of its own (marks repeat the call); OD600 change, %; measured here: OD600 growth;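 optical density of the mix in the first replicate; 0 = DMSO median and -100 = no signal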
rRNA inh HTS RFP = also measured in rRNA inh HTS; calls as there; RFP signal change, %; measured here: RFP humanized mutant strains;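 first replicate; 0 = DMSO median and -100 = no signal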
Active calls of the source: *; ? = inconclusive; · = not tested or not shown. The list is partial, so the mix of outcomes need not match the whole.

Results follow in this order: Vif TR-FRET, Calb FLC, MLL AF4-AF9 inh, Bfl-1 A1 inh, T cruzi repl, RanGTP-Impb inh, Beta apoptosis, rRNA inh HTS, rRNA inh HTS OD600, rRNA inh HTS RFP
1. CCOc1ccc(C(=O)NCC(=O)NCC(c2ccccc2OC)N2CCCC2)cc1 (centres undefined)
  -4%, -7, 9.2, 1.4, 6, 3.3, -3, 6, 5, 1.5
2. Cc1nc2sc(C(c3ccc(Cl)cc3)N3CCOCC3)c(O)n2n1 (centres undefined)
  -9%, -3, ·, 0.7, -5, 0.9, 0, ·, ·, ·
3. CC(NC(=O)C1CCCC1)c1ccc(Br)cc1 (centres undefined)
  7%, -3, ?, -0.4, -7, 0.6, -6, 9, 2, 0.5
4. O=C(NNC(=S)Nc1ccccc1C(F)(F)F)C1CC1
  -6%, -11, 0.6, -0.6, -29, 1.2, -2, 22, 16, -0.8
5. CCCN(CC(=O)Nc1ccccc1C)C(=O)c1ccc(N2CCCC2=O)cc1
  -12%, ·, -5.3, -0.1, ·, ·, 0, -4, -2, 1.5
6. O=C(NN1CCOCC1)c1ccc(Br)s1
  -4%, 20, -0.4, 0.9, -12, 6.5, -3, 11, 7, -0.8
7. CC(=O)Nc1ccc(OCCOc2ccc(/C=C3/C(=N)N4C=CSC4=NC3=O)cc2)cc1
  ·, 6, 2.5, -0.7, -37, ·, -5, 1, -3, 1.9
8. O=S(=O)(c1ccc(S(=O)(=O)N(Cc2ccc(F)cc2)C2CCCC2)cc1)N1CCCC1
  1%, 3, ·, ·, 28, 3.2, ·, ·, ·, ·
9. CC(C)CCNC(=O)c1c(CSc2ccc(Cl)cc2)noc1C(=O)NCc1ccccc1
  ·, 0, ·, 0.0, 11, 3.4, 3, ·, ·, ·
10. COc1ccc(CNC(=O)c2ccc(CS(=O)Cc3cccc(Cl)c3)o2)cc1 (centres undefined)
  ·, -3, -0.8, 1.5, 4, 1.7, -6, -9, -15, -3.5
11. CCCN(CCC)S(=O)(=O)c1ccc2c(c1)CCCN2C(C)=O
  2%, 2, ·, 1.8, 0, -2.5, -10, ·, ·, ·
12. O=C(NC(=S)Nc1ncc(Br)cc1Br)c1cncc(Br)c1
  28%, 13, ·, -0.6, -9, -1.0, 1, ·, ·, ·
13. CCOc1ccccc1CN1CCN(Cc2cc3ccccc3[nH]2)CC1CCO (centres undefined)
  -1%, -17, 6.9, -0.1, 48, 5.9, 0, 1, -5, 7.0
14. N#CC1=C(N)N(c2ccccc2)C(c2ccccc2)C1(C#N)C#N (centres undefined)
  1%, 1, ·, 0.6, 8, 2.3, 12, ·, ·, ·
15. CCCNC(=O)NC1CCCCCCC1
  3%, -28, -8.5, 0.5, 2, 2.0, -2, 1, 7, -0.2
16. CCOC(=O)c1cnn(-c2ccccn2)c1N
  ?, -3, ·, -4.6, 0, 1.7, 2, ·, ·, ·
17. CSc1ccccc1NC(=O)COC(=O)CSc1ccc(C)cc1
  ·, -2, -4.7, 0.0, -6, ·, -4, 1, -2, 4.2
18. CC(C)Cn1c(O)c(N=NC(=O)c2cccc(S(=O)(=O)N3CCCCC3)c2)c2ccccc21
  ·, 25, ·, 0.0, 12, 6.6, 38, ·, ·, ·
19. Cc1cc(N2CCN(C)CC2)nc2ccc(NC(=S)NCCCN3CCN(C)CC3)cc12
  15%, -1, 4.4, -0.7, 18, 7.6, -6, 9, 11, -4.9
20. NC(=O)CC(NC(=O)Cc1ccc(Br)cc1)c1ccc(NCCN2CCOCC2)c([N+](=O)[O-])c1 (centres undefined)
  ·, 3, -0.2, 0.0, -5, 6.2, -25, 12, 17, -11

Remaining list, next part
Results follow in this order: Vif TR-FRET, Calb FLC, MLL AF4-AF9 inh, Bfl-1 A1 inh, T cruzi repl, RanGTP-Impb inh, Beta apoptosis, rRNA inh HTS, rRNA inh HTS OD600, rRNA inh HTS RFP
21. C/C(=N\Nc1ccc(F)cc1)c1ccncc1
  ·, -17, ·, 0.8, 15, -1.2, -6, ·, ·, ·
22. CSc1nc(N)nc(SCC(=O)c2ccc(C)cc2)c1C#N
  -13%, -6, ·, 0.1, 27, 6.0, 0, ·, ·, ·
23. CC(Oc1cccc2c1OC(C)(C)C2)C(=O)O (centres undefined)
  -5%, -4, ·, 0.2, -6, -1.9, -1, ·, ·, ·
24. Nc1nc(NCCO)nc(N2CCCCCC2)c1[N+](=O)[O-]
  ·, -4, -1.2, 1.9, 6, 2.7, -2, -1, 1, 0.1
25. Cc1ccc(S(=O)(=O)N(C)c2ccc(C(=O)NCc3cccnc3)cc2)cc1
  ·, ·, -5.0, -0.5, -7, ·, 9, -6, -8, -1.5
26. CCN(CCCNC(=O)CCn1c(=O)[nH]c2ccsc2c1=O)c1ccccc1
  5%, 7, -1.4, 0.0, -7, 8.6, -1, -1, -1, -3.3
27. CCCCOc1ccc(N(CC(=O)NCc2ccco2)C(=O)CCC(=O)Nc2nccs2)cc1
  ·, 4, 0.4, 0.1, 6, -4.7, 0, 6, 11, -1.4
28. CC(C)C[C@@H](CN(N=O)[C@@H](Cc1ccccc1)CN(C)N=O)N(CCc1ccccc1)N=O
  ?, -6, 8.4, 0.0, 21, -2.8, 2, 2, -1, -3.3
29. COc1ccc(C2=NS(=O)(=O)N(C)C(C(=O)N3CCCCC3)=C2)cc1
  ·, 3, 1.7, 0.5, -3, 3.1, -5, -5, -6, -0.7
30. COc1ccccc1CNC(=O)CCC(=O)N1CCOc2ccc(C)cc21
  ·, -5, -14, -0.5, -3, -0.6, -4, 0, -7, -6.5
31. C=C(C)Cn1c(SCC#N)nc2ccccc2c1=O
  12%, 7, ·, 0.6, -8, 2.5, -3, ·, ·, ·
32. COc1ccc(CCc2nnc(CCC(=O)NCC3CCCO3)o2)cc1 (centres undefined)
  ·, -2, 0.9, 0.3, -7, 1.2, -5, -2, 8, 0.4
33. COCC(C)NC(=O)NC(=O)c1ccc(Cl)cc1 (centres undefined)
  -6%, -20, ·, 0.1, -8, -7.8, 1, ·, ·, ·
34. CC1(C)CC(=O)C=C(Nc2ccccc2NC(=O)c2cnccn2)C1
  72%, -3, ·, 0.3, -19, -1.6, -1, ·, ·, ·
35. CN1CCN(CCCNC(=O)Cn2nc(-c3ccccc3)ccc2=O)CC1
  10%, 8, ·, 0.3, -3, -5.6, -7, ·, ·, ·
36. CCOC(=O)c1cccc(COC(=O)c2cccc(-c3nnc(-c4ccccc4)o3)c2)c1
  -19%, 9, ·, -6.5, 7, 4.1, -3, ·, ·, ·
37. COc1ccc(OC)c(C2=NS(=O)(=O)N(C)C(C(=O)Nc3ccc(C(C)=O)cc3)=C2)c1
  ·, -3, 8.9, 0.2, 7, 0.7, 8, -7, -9, 1.6
38. CC(/C=C/c1ccccc1)=N\NC(=O)CNC(=O)c1ccccc1Cl
  -7%, -9, 0.1, -1.0, 1, 1.4, -4, 6, 7, -1.0
39. Cc1ccc2c(c1)N(CCC(=O)NC1CCCCC1)C(=O)CO2
  ·, 1, -4.0, 0.2, 10, 0.4, -8, 12, 13, -0.1
40. Cc1ccc(C)c(NNC(=O)C(=O)NNc2cc(C)ccc2C)c1
  ·, -24, ·, 0.6, 0, -1.5, ·, 21, 4, 2.9

The list goes on.
Results follow in this order: Vif TR-FRET, Calb FLC, MLL AF4-AF9 inh, Bfl-1 A1 inh, T cruzi repl, RanGTP-Impb inh, Beta apoptosis, rRNA inh HTS, rRNA inh HTS OD600, rRNA inh HTS RFP
41. Oc1cccc(/C=N\Nc2nncc(-c3ccccc3)n2)c1
  ·, 1, -1.1, -5.1, 1, 7.2, ·, -37, -51, 27
42. Cc1ccc(C(=O)NNC(=O)C2CCN(S(=O)(=O)c3ccc(Cl)cc3)CC2)cc1
  25%, -4, -1.0, -0.5, -18, ?, -3, 8, 9, -0.7
43. COC(=O)c1ccc(CSc2nnc(CNC(=O)c3cccs3)o2)o1
  22%, -7, ·, -0.5, 3, 11, -11, ·, ·, ·
44. CC(=O)c1ccc(NC(=S)N2CCC(O)CC2)cc1
  -5%, -5, ·, 0.6, -2, -2.4, 0, ·, ·, ·
45. Cc1cc(/C=C2\NC(=O)NC2=O)c(C)n1-c1ccc(N2CCOCC2)cc1
  ·, -3, 11, 0.9, -4, 0.9, -8, -2, 6, -0.1
46. COCCNC(=O)CSc1nnc2c(Cl)cc(Cl)cn12
  -1%, 3, ·, -1.3, -13, -0.3, -1, ·, ·, ·
47. O=C(COC(=O)c1ccc2c(c1)OCO2)NCc1ccc2c(c1)OCO2
  ?, -28, ·, -0.3, 0, -0.4, 0, ·, ·, ·
48. O=C(C1CCN(S(=O)(=O)N2CCOCC2)CC1)N1CCN(c2ccccc2)CC1
  6%, 0, ·, 0.5, -8, 7.7, 1, ·, ·, ·
49. C=CCn1c(N)c(C(=O)OCCC)c2nc3ccccc3nc21
  -1%, -3, ·, -0.4, 9, 21*, -2, ·, ·, ·
50. CC(C)C(=O)NCCn1ccc2ccccc21
  4%, -19, ·, 0.3, -10, -0.6, -15, ·, ·, ·
51. C/C(=N\NC(=O)C1CC1(c1ccccc1)c1ccccc1)c1cccc([N+](=O)[O-])c1 (centres undefined)
  ·, -4, -25, 1.3, 15, -2.1, -8, 9, 12, 3.0
52. CCN1C(=O)CS/C1=N\S(=O)(=O)c1ccc(C)cc1
  ·, 31, -1.6, 0.4, -12, -3.5, -5, 20, -3, 0.3
53. CC1(C)C(=O)OC(C(=O)c2ccccc2)C(C)(C)C1=O (centres undefined)
  16%, 1, ·, 0.1, -21, -0.2, 1, ·, ·, ·
54. COc1cc2cc(C)c(SCC(=O)N3CCN(C(=O)c4ccco4)CC3)nc2cc1OC
  ?, -1, -34, 0.6, -1, -6.2, 15, -11, -12, -8.1
55. CSc1nccn1C(=O)c1ccccc1[N+](=O)[O-]
  ·, -3, -6.5, 2.1, -10, 1.4, -2, 4, 4, 0.4
56. CCn1nc(C(=O)NCCc2ccc(S(N)(=O)=O)cc2)c2ccccc2c1=O
  13%, -6, ·, 0.2, 0, ?, 1, ·, ·, ·
57. N#C/C(=C\c1ccccc1O)C(=O)Nc1ccccn1
  -1%, 7, 2.0, -0.8, -4, -1.5, -6, 10, 12, -0.8
58. CN(Cc1cc(=O)n2ccsc2n1)c1ccccc1
  ?, 8, 0.8, 0.8, -9, 0.4, -4, 6, 8, 0.1
59. CCc1nnc(NS(=O)(=O)c2ccc(NC(=O)c3ccccc3OC)cc2)s1
  -2%, -2, -2.1, 1.0, -13, 5.7, -3, -3, -5, -5.0
